YopH inh: YopH tyrosine phosphatase inhibitors, primary screen, biochemical, fluorescence Ex485/Em525. AID 898, 2007. inhibition, %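 (about 10 µM by stock and volumes)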. hit rate 0.16% among 140,000;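 active = inhibition of 50% or more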;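 note: controls were vehicle for no effect and minimum signal wells for full effect; inactives centre near -20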
Mtb H37Rv: M. tuberculosis H37Rv growth inhibitors, H37Rv strain (AID 1626) | inhibition, % at 10 µM, or IC50 in µM where a hit was titrated | hit rate 0.95% among 220,000 | M. tuberculosis H37Rv growth inhibition; higher % means a stronger effect;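 active = confirmed in a dose series; inconclusive = inhibition above 80% but not taken into the dose series; inactive = below 80% or under 30% at every dose of the series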;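 note: bacteria incubated seven days before Alamar blue readout; 0% = bacteria only wells and 100% = bacteria with antibiotic wells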
Arbovirus anti: antivirals against arbovirus infection, primary screen, cell-based, full library, 10K replicate subset; arbovirus infection cell-based antiviral screen; inhibition, % at 10 µM; hit rate 0.37% among 200,000;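 active = inhibition from about 30%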;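 note: bluetongue infection of BSR cells; cell survival read as ATP light after 72 h; 0% = infected wells without compound and 100% = uninfected wells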
RecA splice inh: Mtb RecA intein splicing inhibitors, primary screen, biochemical, fluorescence, HTS; Protein RecA (Mycobacterium tuberculosis (strain ATCC 25618 / H37Rv)), P9WHJ3; hit rate 0.75% among 290,000; cell-free RecA intein splicing; inhibition, %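 (about 9 µM by stock and volumes)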; in the data active = inhibition above about 30%; inconclusive = no clear call, values can overlap the other calls;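 note: 0% = vehicle wells and 100% = reference inhibitor control wells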
Target sequence (P9WHJ3 whole entry, looked up, canonical isoform): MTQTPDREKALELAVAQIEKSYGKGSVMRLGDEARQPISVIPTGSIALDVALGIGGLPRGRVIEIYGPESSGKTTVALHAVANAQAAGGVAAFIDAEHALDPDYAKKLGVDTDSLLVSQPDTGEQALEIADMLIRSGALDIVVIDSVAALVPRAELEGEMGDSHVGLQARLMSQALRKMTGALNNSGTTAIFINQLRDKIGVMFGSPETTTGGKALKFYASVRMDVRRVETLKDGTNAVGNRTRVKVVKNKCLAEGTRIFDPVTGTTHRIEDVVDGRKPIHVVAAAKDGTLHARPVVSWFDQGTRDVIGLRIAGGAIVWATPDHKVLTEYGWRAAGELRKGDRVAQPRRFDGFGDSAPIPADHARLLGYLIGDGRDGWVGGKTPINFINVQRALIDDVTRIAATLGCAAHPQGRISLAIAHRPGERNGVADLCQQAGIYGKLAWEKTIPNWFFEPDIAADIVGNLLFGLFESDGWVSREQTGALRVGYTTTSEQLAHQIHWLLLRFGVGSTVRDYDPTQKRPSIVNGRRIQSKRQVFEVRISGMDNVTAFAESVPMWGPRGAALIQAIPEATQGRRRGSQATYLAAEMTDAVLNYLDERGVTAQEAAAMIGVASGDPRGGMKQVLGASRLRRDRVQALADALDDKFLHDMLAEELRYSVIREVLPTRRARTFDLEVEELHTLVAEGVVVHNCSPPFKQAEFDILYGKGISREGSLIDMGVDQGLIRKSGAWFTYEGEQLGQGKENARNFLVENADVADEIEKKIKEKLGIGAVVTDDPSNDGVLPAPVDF
Mtb betalactam: beta-lactam sensitization of Mtb H37Rv, H37Rv; M. tuberculosis H37Rv growth with meropenem, percent inhibition; hits of this screen are not shown here; inhibition, % at 25 µM; hit rate 0.27% among 330,000; AID 434955, 2010;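 active = about 74% or more and at least 40 points above the plate without the antibiotic, then above 30% in a dose series; inconclusive = first-round hits that could not be retested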;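 note: growth measured after seven days incubation then overnight dye step; 0% = bacteria only wells and 100% = bacteria with antibiotic; twin plates without the antibiotic show which effects depend on it; some results filed as inactive read as strong as hits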
Arbovirus anti repeat: also measured in Arbovirus anti; calls as there; inhibition, %; measured here: 10K subset replicate screen; many hits read low in the repeat;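 first of two repeat runs on a subset; 0% = infected and 100% = uninfected wells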
Starred values were filed as active, the others as inactive; ? = inconclusive; nt = not tested or not shown. Some of the compounds tested; the hit share may differ from the screen's.

SMILES	YopH inh	Mtb H37Rv	Arbovirus anti	RecA splice inh	Mtb betalactam	others
Nc1n[nH]c(-c2ccc([N+](=O)[O-])cc2[N+](=O)[O-])n1	nt	-5.0%	-1.6	-2.0	4.0
CC(OC(=O)CCc1nc2ccccc2c(=O)[nH]1)C(=O)c1ccc(C(C)(C)C)cc1 (configuration not stated)	-38.4	4.3%	2.6	-0.5	2.0
COC(=O)c1ccccc1N1C(=O)[C@@H]2C(c3ccc(F)cc3)=NO[C@@H]2C1=O	-45.8	-15.8%	-2.2	-1.0	-3.7
O=C(CCc1ccncc1)NC1CCCc2c1cnn2-c1cc(F)cc(F)c1 (configuration not stated)	nt	nt	nt	-3.6	6.1
CCc1ccc[n+](-c2[nH]c(=O)sc2/C=N/N=C(\[O-])c2ccncc2)c1	nt	nt	nt	1.1	97.7
CCOC(=O)c1c(C)nn(-c2ccc(NC(=O)c3cccs3)cc2)c1C	nt	nt	nt	2.6	93.1
Cc1sc2nc(SC(C)C)nc(N)c2c1C	-7.2	-8.6%	2.0	-4.2	-3.2	Arbovirus anti repeat=-2.5
CC1CC(C)CN(S(=O)(=O)c2cc3c4c(c2)CCN4C(=O)CC3)C1 (configuration not stated)	nt	nt	nt	2.7	-5.2
CC(=O)c1ccc2c(c1)Cc1cc(C(C)=O)ccc1-2	-31.7	4.1%	-9.9	-0.9	7.2
N#Cc1c(SCC(N)=O)nsc1SCc1ccc(Cl)cc1	-1.7	-0.5%	-0.9	6.2	98.5
COc1cccc(NC(=O)c2ccc3snnc3c2)c1	0.8	3.0%	-6.6	0.6	8.8
Cc1ccc(NC(=O)NCc2cccnc2)cc1C	nt	nt	nt	-0.5	-3.7
CN(C)CCCOC(=O)c1ccc(Br)cc1	-36.1	0.8%	5.3	1.9	20.3
CCOC(=O)/C(C#N)=C/c1cn(CCC(=O)O)nc1-c1ccc(Br)cc1	nt	-2.6%	-2.4	2.6	2.6
COc1nc(OC)nc(N2CCC(C(=O)Nc3cccc4ccccc34)CC2)n1	-25.7	-4.8%	6.7	-0.4	1.9
COc1ccc(NC(=O)c2cccnc2)cc1	nt	nt	nt	-0.9	-2.9
COC(=O)CC(NC(=O)c1cccs1)c1ccc(OC)c(OC)c1 (configuration not stated)	nt	-6.4%	5.6	-5.0	1.9
Cc1c(C#N)c(O)n(CCO)c(=O)c1N=Nc1ccc2c(c1)COC2=O	nt	-2.8%	nt	-0.5	-1.2
CCc1ccc(NC(=O)CSc2nnc(-c3cnccn3)n2C)cc1	nt	nt	nt	0.4	84.0
CC1CCCN(Cc2nc3c(c(=O)n(C)c(=O)n3C)n2CCCc2ccccc2)C1 (configuration not stated)	-12.5	7.8%	-7.1	0.3	-8.4

In the list so far, these contain a halogen:
SMILES	YopH inh	Mtb H37Rv	Arbovirus anti	RecA splice inh	Mtb betalactam	others
COC(=O)c1ccccc1N1C(=O)[C@@H]2C(c3ccc(F)cc3)=NO[C@@H]2C1=O	-45.8	-15.8%	-2.2	-1.0	-3.7
O=C(CCc1ccncc1)NC1CCCc2c1cnn2-c1cc(F)cc(F)c1 (configuration not stated)	nt	nt	nt	-3.6	6.1
N#Cc1c(SCC(N)=O)nsc1SCc1ccc(Cl)cc1	-1.7	-0.5%	-0.9	6.2	98.5
CN(C)CCCOC(=O)c1ccc(Br)cc1	-36.1	0.8%	5.3	1.9	20.3
CCOC(=O)/C(C#N)=C/c1cn(CCC(=O)O)nc1-c1ccc(Br)cc1	nt	-2.6%	-2.4	2.6	2.6

The list goes on.
SMILES	YopH inh	Mtb H37Rv	Arbovirus anti	RecA splice inh	Mtb betalactam	others
Cc1sc2ncnc(N3CCC(C(=O)N(C)CC(=O)Nc4ccccc4Cl)CC3)c2c1C	nt	nt	nt	-1.0	55.4
CN(Cc1ccccc1)C(=O)CSc1n[nH]c(N)n1	nt	nt	nt	-3.5	-2.6
Cc1c(-c2ccccc2)oc2c(C(=O)N3CCN(c4ccc([N+](=O)[O-])cc4)CC3)cccc2c1=O	-28.5	5.9%	15.1	4.5	-4.1
Cc1ccc(NS(=O)(=O)c2ccc(C(C)(C)C)cc2)cn1	nt	nt	nt	-0.8	1.6
Cc1nn(-c2cccc([N+](=O)[O-])c2)c(N)c1-c1ccccc1	nt	7.2%	22.1	3.7	-2.1
O=C(CSc1nnc(CNC(=O)c2c(F)cccc2Cl)o1)Nc1ccccc1	-22.8	nt	-0.6	1.5	-12.5
Cc1ccc(CN(C(=O)c2ccco2)C2CCS(=O)(=O)C2)cc1 (configuration not stated)	nt	nt	nt	0.9	?
N#Cc1cc([N+](=O)[O-])ccc1N1CCCC1	-12.1	-10.1%	-3.6	3.1	-6.5
COCCCNC(=O)c1cc(Sc2ccc(F)cc2)nc2ccccc12	-32.1	12.0%	3.6	0.1	1.0
O=C(NC1CCN(Cc2ccccc2)CC1)c1ccc(CS(=O)c2ccc(F)cc2)o1 (configuration not stated)	nt	nt	nt	7.0	-8.6
O=C(NCCCn1ccnc1)c1nn2c(C(F)(F)F)cc(-c3ccccc3)nc2c1Cl	nt	-4.8%	-14.8	-3.4	-2.5
CCCCCn1c(=O)c(C(=O)Nc2c(C)n(C)n(-c3ccccc3)c2=O)c(O)c2ccccc21	-9.7	-6.0%	-0.2	3.2	-3.6
O=C(COc1ccccc1)OCC(=O)N1CCCc2ccccc21	nt	nt	nt	1.3	23.1
CCOc1ccc(OCCC(=O)N2CCc3cc(OC)c(OC)cc3C2)cc1	nt	nt	nt	-1.8	5.0
C=CCNC(=O)C1CCN(c2nc(C)cc(-c3ccccc3)n2)CC1	33.7	-0.7%	-3.9	-2.0	-0.8
COc1ccccc1CC(=O)NC1CCC(C)CC1 (configuration not stated)	nt	-0.8%	3.6	-0.4	2.1
O=c1c(Cl)c(N2CCOCC2)cnn1-c1nc2ccccc2[nH]1	nt	4.8%	0.1	2.1	0.0
O=C(c1ccccc1)c1ccc(Sc2ccc([N+](=O)[O-])cc2)cc1	nt	12.4%	nt	-2.3	-6.1
Cc1noc(C)c1S(=O)(=O)N1CCCC(C(=O)NCc2ccccn2)C1 (configuration not stated)	-47.5	-10.8%	9.4	0.5	-15.2
CC(OC(=O)c1ccccc1NCCO)C(=O)Nc1ccc(S(=O)(=O)N2CCOCC2)cc1 (configuration not stated)	nt	nt	nt	-6.4	6.5

The last 7 records of the section above open the next one:
SMILES	YopH inh	Mtb H37Rv	Arbovirus anti	RecA splice inh	Mtb betalactam	others
CCOc1ccc(OCCC(=O)N2CCc3cc(OC)c(OC)cc3C2)cc1	nt	nt	nt	-1.8	5.0
C=CCNC(=O)C1CCN(c2nc(C)cc(-c3ccccc3)n2)CC1	33.7	-0.7%	-3.9	-2.0	-0.8
COc1ccccc1CC(=O)NC1CCC(C)CC1 (configuration not stated)	nt	-0.8%	3.6	-0.4	2.1
O=c1c(Cl)c(N2CCOCC2)cnn1-c1nc2ccccc2[nH]1	nt	4.8%	0.1	2.1	0.0
O=C(c1ccccc1)c1ccc(Sc2ccc([N+](=O)[O-])cc2)cc1	nt	12.4%	nt	-2.3	-6.1
Cc1noc(C)c1S(=O)(=O)N1CCCC(C(=O)NCc2ccccn2)C1 (configuration not stated)	-47.5	-10.8%	9.4	0.5	-15.2
CC(OC(=O)c1ccccc1NCCO)C(=O)Nc1ccc(S(=O)(=O)N2CCOCC2)cc1 (configuration not stated)	nt	nt	nt	-6.4	6.5
COc1ccc(N(CC(=O)N2CCc3ccccc3C2)S(=O)(=O)c2c(C)[nH]c(=O)[nH]c2=O)cc1	-47.4	-2.5%	9.6	2.8	-2.8	Arbovirus anti repeat=5.3
Cc1ccc(OCCNC(=O)CNC(=O)c2ccc3c(c2)OCO3)cc1	nt	nt	nt	-0.7	-8.6
Cc1cc(C)c(OCC(=O)Nc2ccc3c(c2)OCO3)cc1C	-12.4	-1.7%	4.9	-2.5	-15.4
CC(C(=O)Nc1cc([N+](=O)[O-])ccc1Cl)N1CCN(c2ccccc2O)CC1 (configuration not stated)	-0.2	17.8%	-3.1	4.5	76.3
O=C(N/N=C/c1cccc2cccnc12)[C@H]1C[C@@H]1c1ccccc1	nt	7.1%	nt	nt	96.2
COC(=O)Cn1c(C(O)c2ccccc2)nc2ccccc21 (configuration not stated)	nt	nt	nt	1.2	-10.2
COc1ccc(-c2cc3ccc(OCC(=O)NCC4CCC(C(=O)O)CC4)cc3oc2=O)cc1 (configuration not stated)	nt	nt	nt	-79.6	1.4
CSCCOC(=O)c1[nH]c2c(c1C)C(=O)CC(c1ccco1)C2 (configuration not stated)	-22.2	3.1%	-16.6	0.5	-3.5
Cc1ccc(C(=O)c2c[nH]cc2-c2ccccc2)cc1	-30.3	-3.1%	-2.3	-2.3	-0.8
CCOc1ccc(S(=O)(=O)N2CCCC(C(=O)N3CCOCC3)C2)cc1 (configuration not stated)	nt	nt	nt	-1.1	?
Cc1cccc(C)c1NC(=S)N(CCN(C)C)Cc1cccs1	nt	-5.5%	-13.4	-0.7	4.8
COc1ccc(-c2n[nH]c(=S)n2CC(C)C)cc1	-27.4	1.8%	0.7	0.6	-23.7
O=C(CSc1ccc(F)cc1)NC1CCCCC1	nt	6.5%	5.7	0.5	2.0
COc1ccc(C(=O)CC(=O)C(=O)Nc2ccc(OC)c(Cl)c2)cc1	nt	nt	nt	-1.3	49.1
CC(NC(N)=O)C(=O)Nc1ccc(Cl)c(S(=O)(=O)Nc2ccc(Br)cc2)c1 (configuration not stated)	nt	0.9%	-0.7	-1.3	-6.2
COc1ccc(-c2cc(C(=O)Nc3sc4c(c3C#N)CCCC4)c3ccccc3n2)cc1	-11.6	7.8%	-2.1	nt	-5.3
CCOC(=O)c1sc2ccccc2c1OC(=O)c1ccc(C)cc1	-21.5	?	1.3	-1.6	100.0
c1csc(CNc2nc3ccccc3n2CCN2CCOCC2)c1	-3.0	-7.3%	9.2	1.0	-1.5
COc1ccc(CNC(=O)CCc2cc(OC)c(OC)c(OC)c2)cc1	nt	nt	nt	2.3	-1.1
O=[N+]([O-])c1ccc(N=NN(CCO)CCO)cc1	37.0	1.2%	1.2	nt	-3.6
CC(=O)NC(Cc1ccc(F)cc1)C(=O)NC1CCN(c2ncccc2[N+](=O)[O-])CC1 (configuration not stated)	nt	6.5%	-0.2	0.5	3.0
O=[N+]([O-])c1ccc(N2CCN(S(=O)(=O)c3ccc(Cl)c(Cl)c3)CC2)cc1NCCN1CCOCC1	-37.1	-5.2%	4.9	2.9	5.8
OC(c1ccccc1)c1ccncc1 (configuration not stated)	nt	nt	nt	18.4	-3.5
N#Cc1c(-c2ccccc2)ccnc1N1CCOCC1	nt	6.5%	1.0	2.4	-3.6
CCOc1ccc(C(=O)NCC(=O)OCC(=O)Nc2ccccc2OCC)cc1	-7.0	8.1%	1.9	nt	12.4
Cc1nc2c(cnn2-c2ccc(Cl)cc2)c(=O)n1-c1ccc(N2CCC(C)CC2)cc1	-28.1	nt	4.6	4.2	nt
COc1cccc2c1CCC(NC(C)=O)C2=O (configuration not stated)	-4.9	-0.4%	0.1	3.8	1.8
COCc1ccc(C(=O)N2CCCC(CNC(=O)c3ccc(F)cc3)C2)o1 (configuration not stated)	nt	nt	nt	0.7	-5.1
CCc1cc(=O)oc2c(C)c(OCC(=O)NCc3ccccn3)ccc12	nt	nt	nt	-7.0	7.3
O=C(CN(C(=O)CNS(=O)(=O)c1ccccc1)C1CCCC1)NCC1CCCO1 (configuration not stated)	-34.7	-1.6%	0.0	-2.0	-11.9
COc1ccc(CN(C(=O)c2cc(=O)c3cc(C)cc(C)c3o2)C2CCS(=O)(=O)C2)cc1 (configuration not stated)	nt	2.4%	nt	nt	0.9
O=C(CCn1c(=O)c2ccccc2n(CC(=O)NC2CCCC2)c1=O)NCCc1ccc(Cl)cc1	-12.9	-7.9%	-1.9	nt	-4.8
O=C(c1ccc(C(=O)N2CCCc3ccccc32)s1)N1CCCc2ccccc21	-32.3	-7.6%	-5.0	0.2	2.6
COCCNC(=O)C(c1ccc(F)cc1)N(Cc1ccccc1)C(=O)CCC(=O)Nc1ccccn1 (configuration not stated)	nt	nt	nt	17.8	3.4
Cc1cccc2c(=O)c(C(=O)NCc3cccs3)c[nH]c12	43.0	-4.0%	nt	-2.6	7.6
O=C(Nc1c(Cl)cccc1Cl)c1cc(=O)n(Cc2ccccc2)c(=O)[nH]1	-32.6	-0.5%	0.5	nt	3.0
OCCCNCc1cccc2ccccc12	-29.5	3.9%	0.8	0.6	-2.3
C=CCNC(=S)N1CCN(c2cccc(C(F)(F)F)c2)CC1	-10.7	13.3%	9.4	2.3	-3.7

Source: PubChem
